Source: PubChem BioAssay (several laboratories)
RecA splice inh: Mtb RecA intein splicing inhibition. cell-free RecA intein splicing, fluorescence. inhibition, %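 (about 9 µM by stock and volumes)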. AID 2221. actives 0.75% (n = 290,000). P9WHJ3; in the data active = inhibition above about 30%; inconclusive = no clear call, values can overlap the other calls;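 also: 0% = vehicle wells and 100% = reference inhibitor control wells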
Target sequence (P9WHJ3 whole entry, looked up, canonical isoform): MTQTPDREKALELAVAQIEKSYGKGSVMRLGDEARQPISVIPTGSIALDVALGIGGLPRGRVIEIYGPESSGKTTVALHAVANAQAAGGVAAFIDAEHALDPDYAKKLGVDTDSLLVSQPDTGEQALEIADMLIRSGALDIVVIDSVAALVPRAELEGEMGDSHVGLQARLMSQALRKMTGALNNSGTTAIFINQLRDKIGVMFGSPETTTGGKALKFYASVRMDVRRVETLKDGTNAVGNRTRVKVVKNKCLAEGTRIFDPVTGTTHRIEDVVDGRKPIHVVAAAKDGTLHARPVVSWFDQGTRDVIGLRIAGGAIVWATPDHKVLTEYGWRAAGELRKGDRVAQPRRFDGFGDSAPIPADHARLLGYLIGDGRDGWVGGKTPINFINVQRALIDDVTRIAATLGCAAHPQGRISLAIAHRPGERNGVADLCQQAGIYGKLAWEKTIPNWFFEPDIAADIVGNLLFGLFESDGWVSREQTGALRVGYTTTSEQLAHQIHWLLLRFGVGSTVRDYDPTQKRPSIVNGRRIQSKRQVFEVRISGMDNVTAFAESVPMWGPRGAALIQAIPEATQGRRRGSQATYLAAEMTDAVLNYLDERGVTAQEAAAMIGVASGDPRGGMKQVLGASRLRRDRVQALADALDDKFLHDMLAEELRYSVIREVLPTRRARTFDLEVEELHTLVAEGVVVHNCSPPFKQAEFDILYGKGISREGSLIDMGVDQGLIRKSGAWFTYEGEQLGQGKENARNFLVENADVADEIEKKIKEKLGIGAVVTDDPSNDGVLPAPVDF
Mtb H37Rv: M. tuberculosis H37Rv growth inhibitors, H37Rv strain (AID 1626); inhibition, % at 10 µM, or IC50 in µM where a hit was titrated; M. tuberculosis H37Rv growth inhibition; higher % means a stronger effect; actives 0.95% (n = 220,000);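 active = confirmed in a dose series; inconclusive = inhibition above 80% but not taken into the dose series; inactive = below 80% or under 30% at every dose of the series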;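 also: bacteria incubated seven days before Alamar blue readout; 0% = bacteria only wells and 100% = bacteria with antibiotic wells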
YopH PTP inh: blocks Yersinia enterocolitica YopH tyrosine phosphatase; fluorescence Ex485/Em525; inhibition, %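 (about 10 µM by stock and volumes)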; actives 0.16% (n = 140,000);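 active = inhibition of 50% or more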;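 also: controls were vehicle for no effect and minimum signal wells for full effect; inactives centre near -20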
Mtb betalactam: beta-lactam sensitization of Mtb H37Rv; M. tuberculosis H37Rv growth with meropenem, percent inhibition; hits of this screen are not shown here; inhibition, % at 25 µM; actives 0.27% (n = 330,000);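 active = about 74% or more and at least 40 points above the plate without the antibiotic, then above 30% in a dose series; inconclusive = first-round hits that could not be retested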;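 also: growth measured after seven days incubation then overnight dye step; 0% = bacteria only wells and 100% = bacteria with antibiotic; twin plates without the antibiotic show which effects depend on it; some results filed as inactive read as strong as hits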
Arbovirus anti: blocks arbovirus infection | arbovirus infection cell-based antiviral screen | inhibition, % at 10 µM | actives 0.37% (n = 200,000) | AID 1251;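 active = inhibition from about 30%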;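 also: bluetongue infection of BSR cells; cell survival read as ATP light after 72 h; 0% = infected wells without compound and 100% = uninfected wells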
Arbovirus anti repeat: further read-out of Arbovirus anti, marked with its call; inhibition, %; measured here: 10K subset replicate screen; many hits read low in the repeat;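 first of two repeat runs on a subset; 0% = infected and 100% = uninfected wells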
An asterisk follows results filed as active; ? = inconclusive; nt = no result given. Only part of the results is shown; count on the stated rates, not on these rows.

SMILES | RecA splice inh | Mtb H37Rv | YopH PTP inh | Mtb betalactam | Arbovirus anti | others
Cc1nn(-c2ccccc2)c(N)c1N=Nc1ccc(Cl)cc1 | nt | 10.5% | -12.8 | 97.9 | -27.8
FC(F)(F)c1ccccc1CN1CCC(Cc2ccccc2)CC1 | 6.5 | nt | nt | 2.6 | nt
CN=C1SC(CC(=O)Nc2ccccc2F)C(=O)N1/N=C/c1ccc(O)c(OC)c1 (centres undefined) | -0.3 | 0.1% | nt | -4.1 | -2.4
CCCN1CCN(c2nc3c([nH]2)c(=N)ncn3CC(O)CO)CC1 (centres undefined) | 1.0 | -4.6% | -14.0 | -6.5 | 4.6
C#CCSc1nc(N)c2c(n1)OC(N)=C(C#N)C2c1cccnc1 (centres undefined) | 1.4 | 7.3% | nt | -3.0 | -1.0
C=Cn1c(N2CCOCC2)nc2c1c(=O)[nH]c(=O)n2C | -2.6 | -4.5% | 5.0 | -2.5 | -1.2
CCOc1ccc(Cl)cc1S(=O)(=O)N1CCN(c2ccc(C)c(C)c2)CC1 | 5.3 | -2.7% | -1.6 | 4.2 | -1.8
Cc1cc(C)cc(C(=O)OCC(=O)NCc2cccs2)c1 | -0.4 | 12.9% | -20.5 | 1.6 | -11.0
O=C(Oc1ccc2ccc(=O)oc2c1)c1ccco1 | -1.5 | nt | nt | -6.4 | nt
O=C(O)C1NCCc2ccccc21 (centres undefined) | 1.6 | -7.4% | -15.3 | -6.8 | 1.1
C/C=C/c1ccc(OCC(=O)N(C)CC(=O)Nc2ccc(F)cc2)c(OC)c1 | 1.6 | nt | nt | 1.0 | nt
COc1ccc(S(=O)(=O)n2cnc3ccccc32)cc1 | -1.4 | nt | nt | -4.4 | nt
CCOC(=O)C1CCN(Cc2ccc(OCc3ccccc3)cc2)CC1 | 1.5 | nt | nt | 4.5 | nt
COCc1ccc(C(=O)N2CCCC(Nc3ccc4c(c3)OCCO4)C2)o1 (centres undefined) | -0.2 | nt | nt | 2.3 | nt
COc1cccc(C(=O)Nc2ccc3c(C)cc(=O)oc3c2)c1 | -0.3 | nt | nt | 0.1 | nt
O=C(NCc1cccs1)C1CCCN1S(=O)(=O)c1ccccc1F (centres undefined) | 2.4 | -4.7% | -51.2 | -14.6 | -0.2 | Arbovirus anti repeat=6.7
CCOc1ccc(S(=O)(=O)N(CC(=O)NC2CCCCC2C)Cc2ccco2)cc1 (centres undefined) | 2.0 | 5.2% | 4.0 | -0.5 | -12.0
O=C(COc1ccc2c3c(c(=O)oc2c1)CCC3)NC1CCN(Cc2ccccc2)CC1 | -1.5 | nt | nt | -3.7 | nt
Cn1cc(S(=O)(=O)N2CCN(c3ccccc3F)CC2)c(=O)n(C)c1=O | -0.1 | -0.1% | -19.7 | -3.6 | -0.3
O=C(c1ccc2c(c1)OCO2)N1CCCN(C(=O)c2ccc3c(c2)OCO3)CC1 | -0.7 | -4.6% | -0.2 | -7.0 | -0.4
CC1=C(C(=O)Nc2nc3ccccc3s2)C(c2ccco2)C(C#N)=C(SCC(=O)NC2CCCCC2)N1 (centres undefined) | -6.4 | ? | -16.8 | 95.0 | -10.0
O=C(NCc1ccncc1)C1CCN(C(=O)c2cccc(Cl)c2)CC1 | -1.3 | nt | nt | 1.9 | nt
CCCCC[C@H]1CN(CCCC)C(=O)[C@@H]1CC(=O)NCc1ccc(OC)cc1 | 2.1 | nt | nt | 0.7 | nt
CCOc1nc(CC(C)C)c2c(c1C#N)CC(C)(C)OC2 | 4.2 | -1.9% | nt | -0.7 | nt
CCOC(=O)CSc1nc2c(sc(=S)n2-c2ccccc2OC)c(=O)n1Cc1ccco1 | 4.0 | -3.6% | -1.9 | -3.8 | 8.0
Cc1ccc(CN2CCSc3ccc(C(=O)NCCCN4CCN(C)CC4)cc32)cc1 | -10.7 | nt | nt | 1.1 | nt
Cn1nc(C(=O)N2CCc3ccccc3C2)c2ccccc2c1=O | -5.8 | -3.5% | -16.7 | -4.0 | -6.1
COc1ccc(NC(=O)CCS(=O)(=O)c2ccc(Cl)cc2)cc1 | 0.5 | nt | nt | -1.0 | nt
CC(=O)c1ccc(OC(=O)CN2C(=O)c3ccccc3C2=O)cc1 | 8.4 | nt | nt | 1.9 | nt
CCOc1ccccc1N(C(=O)c1ccccc1Cl)C1=NC(C)(C)CS1 | 3.3 | 8.8% | nt | -3.5 | 0.4
CCOC(=O)C1=C(CC)NC2=C(C(=O)CCC2)C1c1ccc(OC)c(OC)c1 (centres undefined) | -4.0 | 8.2% | -21.8 | -11.9 | 4.0
N#Cc1c(Cl)nc(Cl)c2c1CCN(Cc1ccccc1)C2 | -30.9 | -1.1% | -22.3 | -0.4 | -2.7
COc1ccc(CNC(=O)C2(CC3CC(c4ccccc4)=NO3)CCN(C(=O)C3CCCC3)CC2)cc1 (centres undefined) | -0.6 | nt | nt | 1.8 | nt
O=c1cc(-c2ccc([N+](=O)[O-])cc2)nc2cc(-c3ccc(F)cc3)[nH]n12 | 2.8 | 2.6% | -12.4 | 6.2 | 4.5
O=C(c1cccc(NS(=O)(=O)c2cccc([N+](=O)[O-])c2)c1)N1CCOCC1 | 2.4 | 4.2% | nt | 1.1 | -0.6
Cc1oc(-c2cccc(Cl)c2)nc1CS(=O)(=O)CC(=O)NC1CCCC1 | 2.3 | nt | nt | -0.2 | nt
Cc1oc(-c2cc(F)cc(F)c2)nc1CN1CCSCC1 | -1.5 | 0.2% | nt | -1.1 | 10.0
CC1=NN(C(=O)c2cccc(Cn3nc(C)c([N+](=O)[O-])c3C)c2)C(O)(C(F)(F)F)C1 (centres undefined) | -1.1 | -1.0% | -21.7 | 0.1 | -3.6
O=c1cc(N2CCOCC2)[nH]c(=O)n1C1CCCCC1 | -4.7 | -16.6% | -6.9 | -3.0 | 2.8
O=C(O)Cc1ccc(NC(=S)Nc2ccc(Br)cc2Cl)cc1 | 0.0 | -5.5% | nt | -5.8 | nt
O=C1N/C(=N/O)S/C1=C/c1cccnc1 | -5.6 | -2.5% | nt | 87.4 | 0.8
C=C(C)C(=O)NC1=NN(c2ccccc2)C(=O)C1 | 72.6* | 8.8% | -18.5 | -4.1 | -6.7
COc1ccc(CCNC(=O)CCC(=O)c2cccs2)cc1OC | 0.5 | nt | nt | -0.9 | nt
COC(=O)N/N=C/c1cn(Cc2ccccc2F)c2ccccc12 | nt | -3.8% | nt | 3.2 | nt
O=C(CC1CCCC1)Nc1nc2ccccc2[nH]1 | -1.8 | -4.2% | -29.1 | 33.6 | 1.4
CC(C)(C)N(CC#CCC(O)(c1ccccc1)c1ccccc1)CCO | 1.5 | -1.8% | nt | -9.2 | nt
CCOC(=O)c1c(C)sc2c1N(C(C)=O)c1cc(Cl)ccc1S2 | 8.2 | 7.3% | 6.9 | 10.5 | -18.3
CCCN(CC(=O)Nc1cccc(Br)c1)CC(=O)Nc1ccc(F)c(F)c1F | 11.7 | 5.3% | -19.8 | 0.0 | -31.8
CC(C)(C)S(=O)(=O)c1ccsc1C(=O)O | 0.3 | 2.0% | -59.1 | -4.3 | -8.8
Cc1ccc(C(=O)CSc2nc3cccnc3n2C)cc1 | 2.2 | 5.7% | -31.3 | -0.3 | 6.5
(next part)
SMILES | RecA splice inh | Mtb H37Rv | YopH PTP inh | Mtb betalactam | Arbovirus anti | others
CCOC(=O)C1C(=O)NC(c2ccccc2)=NC1c1ccc(Br)cc1 (centres undefined) | 0.4 | 2.4% | nt | 0.7 | 20.9
Cc1ccccc1NC1(C#N)CCCCC1 | -2.4 | -4.4% | nt | -10.3 | 17.3
COc1ccc(OCC(=O)NCCCN2CCOCC2)cc1 | 0.5 | -3.4% | -5.5 | 4.0 | 6.7
Cc1ccc(CNC(=O)c2cc(-c3cc(C)cc(C)c3O)n[nH]2)cc1 | 0.3 | 0.2% | nt | -10.2 | nt
O=C(CNC(=O)c1ccc2c(c1)OCO2)Nc1ncccc1O | -3.8 | nt | nt | -2.8 | nt
COCCn1cnc2c1c(=O)n(Cc1c(F)cccc1Cl)c(=O)n2Cc1ccccc1 | 3.3 | nt | nt | 7.6 | nt
CC(=O)N1c2ccc(S(=O)(=O)N3CCCC(C(=O)Nc4cccc(F)c4)C3)cc2CC1C (centres undefined) | -3.8 | nt | nt | -0.9 | nt
Cc1nc2ccc(F)cc2cc1C(=O)Nc1ccc(Cl)c(Cl)c1 | 2.0 | -15.7% | -22.6 | -3.2 | -2.6
Cc1nc2ccccn2c1/C(O)=C1\C(=O)C(=O)N(CCN(C)C)C1c1ccco1 (centres undefined) | 0.2 | -2.8% | nt | -4.7 | -1.8
O=C(NCCc1c[nH]c2ccccc12)C(F)(F)C(F)F | -2.3 | -7.5% | -42.9 | -2.6 | 6.5
O=C1N(CN2CCN(c3cccc(Cl)c3)CC2)c2ccccc2C12OCCCO2 | -0.4 | -3.5% | -24.7 | -1.4 | 5.6
CCn1nc(C)c(NC(=O)CC23CC4CC(CC(C4)C2)C3)c1C | 0.0 | -3.9% | -22.8 | 2.0 | 0.4
CCSc1ccc2nnc(-c3cccc(F)c3)n2n1 | -1.8 | 8.5% | -1.1 | 11.9 | -0.3
COc1ccc(NS(=O)(=O)c2cc(S(C)(=O)=O)ccc2C)cc1 | 2.5 | -11.3% | -23.0 | -2.0 | 3.2
COC(=O)c1[nH]c2cccc(OC)c2c1NC(=O)CN(C)CC1OCCO1 | -1.7 | -3.6% | 19.7 | -17.8 | 6.2
O=C(Nc1ccc(Cl)c(Cl)c1)Nc1cc(C(=O)N2CCOCC2)ccc1N1CCCCC1 | -3.5 | nt | -11.1 | -3.2 | nt
CCNc1nc(SCC(=O)Nc2ccc(Cl)c(Cl)c2)nc(N2CCOCC2)n1 | 1.0 | nt | nt | 1.6 | nt
CS(=O)(=O)NCc1nnc(SCc2c(F)cccc2Cl)o1 | 3.0 | 0.3% | nt | -1.4 | 6.2
O=C(Cc1ccccc1)NNC1CC(=O)N(c2ccc(Cl)cc2)C1=O (centres undefined) | 1.0 | -7.7% | nt | 0.3 | 6.5
COCCCn1c(=O)c2sccc2n(Cc2cc(C(=O)OC)ccc2OC)c1=O | 4.7 | nt | nt | 0.6 | nt
Cc1nc(SCc2cccnc2)[nH]c(=O)c1C | -1.5 | nt | nt | ? | nt
COCCNC(=O)C1CC(c2ccccc2C(F)(F)F)=NO1 (centres undefined) | 0.5 | nt | nt | -5.4 | nt
Cc1cc(C)nc(NC(=S)Nc2cccc(F)c2)c1 | 1.3 | -6.2% | nt | ? | nt
O=C(c1cccc(C(F)(F)F)c1)N1CCCCCC1 | -1.1 | 6.5% | -0.7 | nt | 9.2

An excerpt from above in order of heavy-atom count, rising:
SMILES | RecA splice inh | Mtb H37Rv | YopH PTP inh | Mtb betalactam | Arbovirus anti | others
Cc1nc(SCc2cccnc2)[nH]c(=O)c1C | -1.5 | nt | nt | ? | nt
CCSc1ccc2nnc(-c3cccc(F)c3)n2n1 | -1.8 | 8.5% | -1.1 | 11.9 | -0.3
O=C(NCCc1c[nH]c2ccccc12)C(F)(F)C(F)F | -2.3 | -7.5% | -42.9 | -2.6 | 6.5
CS(=O)(=O)NCc1nnc(SCc2c(F)cccc2Cl)o1 | 3.0 | 0.3% | nt | -1.4 | 6.2
COCCNC(=O)C1CC(c2ccccc2C(F)(F)F)=NO1 (centres undefined) | 0.5 | nt | nt | -5.4 | nt
COc1ccc(NS(=O)(=O)c2cc(S(C)(=O)=O)ccc2C)cc1 | 2.5 | -11.3% | -23.0 | -2.0 | 3.2
O=C(Cc1ccccc1)NNC1CC(=O)N(c2ccc(Cl)cc2)C1=O (centres undefined) | 1.0 | -7.7% | nt | 0.3 | 6.5
COC(=O)c1[nH]c2cccc(OC)c2c1NC(=O)CN(C)CC1OCCO1 | -1.7 | -3.6% | 19.7 | -17.8 | 6.2
CCNc1nc(SCC(=O)Nc2ccc(Cl)c(Cl)c2)nc(N2CCOCC2)n1 | 1.0 | nt | nt | 1.6 | nt
O=C1N(CN2CCN(c3cccc(Cl)c3)CC2)c2ccccc2C12OCCCO2 | -0.4 | -3.5% | -24.7 | -1.4 | 5.6
O=C(Nc1ccc(Cl)c(Cl)c1)Nc1cc(C(=O)N2CCOCC2)ccc1N1CCCCC1 | -3.5 | nt | -11.1 | -3.2 | nt
